From PubChem
CBX7 inh: CBX7 inhibition, primary AlphaScreen; AlphaScreen His6-CBX7 / biotin-H3K27me3 peptide binding; stronger effect = lower value; AID 1224903; normalised signal (fraction of DMSO) (test concentration not listed); O95931; 66,000 compounds, 1.1% hits; in the data active means normalised signal below about 0.5;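 further: 100 nL library stock added to about 20 µL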
Target sequence (O95931 whole entry, looked up): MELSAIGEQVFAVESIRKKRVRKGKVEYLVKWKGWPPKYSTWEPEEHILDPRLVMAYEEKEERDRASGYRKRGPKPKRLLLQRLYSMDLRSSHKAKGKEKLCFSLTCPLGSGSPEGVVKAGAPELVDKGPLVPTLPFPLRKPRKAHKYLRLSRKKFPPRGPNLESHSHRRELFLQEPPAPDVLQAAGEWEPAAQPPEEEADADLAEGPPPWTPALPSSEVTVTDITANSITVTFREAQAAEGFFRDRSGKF
CBX7 inh z-score: further read-out of CBX7 inh, marked with its call; z-score; measured here: z-score of CBX7 signal; some inactives read as strong as hits; reference of the scale not given here;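 same signal on another scale; lower means less binding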
* = called active by the depositor; & = joins results of further samples. An excerpt; rates above refer to the full screens.

SMILES	CBX7 inh	CBX7 inh z-score
CC1=C(C(=O)Nc2cccc(C)n2)C(c2ccccc2C(F)(F)F)C2=C(CC(C)(C)CC2=O)N1 (centres undefined)	1.1	0.21
CCC(C)NC(=O)c1sc2nc(-c3ccc(F)cc3)cn2c1C (centres undefined)	1.05	1.48
O=C1Nc2cc(C(=O)N(Cc3ccccc3)Cc3ccccc3F)ccc2Sc2ccccc21	0.845	-3.42
COc1ccc(CNC(=O)Cn2ccc3ccccc3c2=O)cc1	1.05	0.472
CCOc1ccc(C(=O)Nc2ccc(OC)cc2OC)cc1OCC	1.09	1.4
Cc1ccc(-c2nc(NC(=O)c3ccccc3Br)sc2C)cc1	0.885	-2.45
Cc1cccc2nc(-c3c(F)cccc3Cl)c(Nc3ccc4c(c3)OCCO4)n12	0.741	-5.04
COc1ccc(NC2c3ccccc3C(=O)N2c2ccc(C)cn2)cc1OC (centres undefined)	0.94	-1.96
COc1cccc(NS(=O)(=O)c2ccc3[nH]cc(C(=O)NC4CCCCC4C)c(=O)c3c2)c1 (centres undefined)	0.928	-0.903
NC(=O)C1(N2CCCCC2)CCN(C2CC(=O)N(c3cccc(Cl)c3)C2=O)CC1 (centres undefined)	1.02	0.858
Clc1ccc(Cc2nc(-c3cccnc3)no2)cc1	1.09	3.14
COc1ccc(CCNC(=O)C2(C)CC3c4ccccc4C2c2ccccc23)cc1OC (centres undefined)	0.992	-0.2
Cc1ccc(CCNC(=O)c2ccc3c(c2)N(Cc2cccc(F)c2)C(=O)c2ccccc2S3)cc1	0.977	-0.64
O=C(CCCCN1CCCCC1)Nc1nc(-c2ccc(Br)cc2)cs1	1.07&1.12	2.43&1.38
Clc1ccc(CN2CCN(Cc3cccnc3)CC2)cc1	1.01	0.134
O=C(NCc1ccc2c(c1)OCO2)c1cc(-c2ccc(Br)s2)nc2ccccc12	1.28	2.35
O=C(COc1ccc(-c2nnc(Nc3ccccc3)c3ccccc23)cc1)N1CCCCC1	0.97	-0.143
CCc1cccc(C)c1Nc1c(-c2ccc(C)cc2)nc2cnccn12	1.29	12
O=C(Cn1nc(-c2ccccc2)ccc1=O)NCCCN1CCOCC1	1.01	0.319
Cc1nc(-n2cnc3cc(C)c(C)cc32)c2c3c(sc2n1)CCCC3	0.689	-3.51
COC(=O)Cc1nc(NCc2ccc(Cl)cc2)c2c(C)c(C)sc2n1	0.829	-0.17
CCCOc1ccc(CNC(=O)C2CCN(C(=O)c3sccc3-n3cccc3)CC2)cc1	0.996	-0.201
COc1cc(C2NCCc3c2[nH]c2ccccc32)ccc1OCC(N)=O (centres undefined)	0.923	-0.914
CC(C)(C)c1ccc2c(c1)N(CC(=O)NCc1ccccc1)C(=O)CO2	1	0.025
CC(Oc1ccccc1)C(=O)N1CC(=O)Nc2ccc(F)cc2C1c1ccc(F)cc1 (centres undefined)	0.873	-2.3
COc1ccc(N2C(=O)CC(N3CCN(C)CC3)C2=O)cc1 (centres undefined)	1.03	0.793
COc1cc2[nH]c(=O)n(CCCC(=O)NC(C)CCc3ccccc3)c(=O)c2cc1OC (centres undefined)	1.1	2.57
COCCNC(=O)c1csc2c1CCCC2	0.993	-0.088
CCCCc1ccc(-c2nc(Nc3cc(Cl)c(OC)cc3OC)c3ccccc3n2)cc1	1.52	6.22
CC(=O)N1CCc2cc(S(=O)(=O)NCCC(=O)Nc3cc(C)ccc3C)ccc21	0.903	-1.48
COc1cc2c(cc1OC)C(C(=O)Nc1c(F)cccc1F)C(c1ccccc1F)N(C)C2=O (centres undefined)	0.836	-2.96
CCN(CC)C(=O)c1cc2c(s1)-c1c(C)cccc1OC2	1.06	2.18
Cc1ccc2c(c1)c1c(n2CC(O)CNc2ccc(Br)cc2)C(=O)CCC1 (centres undefined)	1.01	0.307
O=C(Nc1ccc2oc(-c3ccc(Br)cc3)nc2c1)c1ccccc1F	1.02	0.853
Cc1cccc(CC(=O)N2CC(=O)Nc3ccc(Br)cc3C2c2ccc(F)cc2)c1 (centres undefined)	1.04	0.395
CCC(C(=O)NCc1ccc(F)cc1)n1ncc2ccccc21 (centres undefined)	1.01	0.19
CCc1ccc2c3c(c(C)[nH]c13)CCN1C(=O)OC(C)(C)C21C (centres undefined)	0.894	-0.774
CC(C)(C)C(=O)NCc1nc2ccccc2n1Cc1ccccc1F	1	0.043
Cc1ccc(Nc2c(-c3ccc(N4CCOCC4)cc3)nc3ncccn23)cc1	0.866	-1.59
CCOc1ccc(CC(=O)Nc2c(C(N)=O)oc3ccc(Cl)cc23)cc1OCC	1.2	1.89
CCOCCCNC(=O)c1ccc2c(c1)N(Cc1ccccc1)CCS2	0.882	-0.156
COC(=O)C1=C(C)Nc2nnnn2C1c1cc(OC)ccc1OC (centres undefined)	0.955	-0.534
O=C(Nc1c(C(=O)c2ccc(Cl)cc2)oc2ccccc12)c1ccc(F)cc1	1.12	0.53
COc1ccc(-c2cc(C(=O)Nc3nncs3)c3ccccc3n2)c(OC)c1	1.02	0.693
CCOc1ccc(CCNC(=O)c2ccc3nc(N4CCOCC4)sc3c2)cc1	1.01	0.211
CCOC(=O)Cn1nnnc1-c1nonc1N	1.04	1.59
CC1CCCCC1NC(=O)CC1Sc2ccccc2NC1=O (centres undefined)	1.04	0.5
COc1ccc2nc(NC(=O)NC34CC5CC(CC(C5)C3)C4)sc2c1	1.01	0.498
Cc1ccc(-c2nc3ccc(C(F)(F)F)cc3nc2-c2ccc(C)cc2)cc1	1.34	2.23
COc1cccc(CNc2nnc(Cc3ccncc3)c3ccccc23)c1	0.988	-0.463
COc1ccc(S(=O)(=O)N2CCN(c3ccc4nnc(-c5ccc(F)cc5)n4n3)CC2)cc1	0.796	-2.85
O=C(Nc1ncc(Cc2ccc(F)cc2)s1)c1sc2ccccc2c1Cl	1.05	2.31
COc1cc(OC)cc(-n2nc(C(=O)Nc3ccc(F)c(Cl)c3)c3ccccc3c2=O)c1	0.92	-2.14
COc1ccc(N2CCN(Cc3nc(-c4ccccc4)no3)CC2)cc1	1.03	0.377
Cc1cc(C)c(OCC(=O)N(Cc2ccccc2)C2CCS(=O)(=O)C2)c(C)c1 (centres undefined)	0.948	-0.0514
COCCCNC(=O)CCN1C(=O)C(C)Oc2ccc(C)cc21 (centres undefined)	0.969	-0.419
COc1ccc(N2C(=O)c3ccc(C(=O)Nc4ccccc4C(=O)O)cc3C2=O)cc1	1.15	2.97
O=c1nc(/C=C/c2ccc(N3CCCC3)cc2)cc(C(F)(F)F)[nH]1	0.987&1.01	-0.667&0.02
CCC(=O)N1CCc2cc(S(=O)(=O)Nc3ccc(OC)c(OC)c3)ccc21	0.815	-0.748
CC1(C)CC(=O)N(CC(=O)N2CCCC2)c2ccccc2S1	0.975	-0.724

Given in CSV form: part of the list above
SMILES,CBX7 inh,CBX7 inh z-score
COc1ccc(-c2cc(C(=O)Nc3nncs3)c3ccccc3n2)c(OC)c1,1.02,0.693
CCOc1ccc(CCNC(=O)c2ccc3nc(N4CCOCC4)sc3c2)cc1,1.01,0.211
CCOC(=O)Cn1nnnc1-c1nonc1N,1.04,1.59
CC1CCCCC1NC(=O)CC1Sc2ccccc2NC1=O (centres undefined),1.04,0.5
COc1ccc2nc(NC(=O)NC34CC5CC(CC(C5)C3)C4)sc2c1,1.01,0.498
Cc1ccc(-c2nc3ccc(C(F)(F)F)cc3nc2-c2ccc(C)cc2)cc1,1.34,2.23
COc1cccc(CNc2nnc(Cc3ccncc3)c3ccccc23)c1,0.988,-0.463
COc1ccc(S(=O)(=O)N2CCN(c3ccc4nnc(-c5ccc(F)cc5)n4n3)CC2)cc1,0.796,-2.85
O=C(Nc1ncc(Cc2ccc(F)cc2)s1)c1sc2ccccc2c1Cl,1.05,2.31
COc1cc(OC)cc(-n2nc(C(=O)Nc3ccc(F)c(Cl)c3)c3ccccc3c2=O)c1,0.92,-2.14
COc1ccc(N2CCN(Cc3nc(-c4ccccc4)no3)CC2)cc1,1.03,0.377
Cc1cc(C)c(OCC(=O)N(Cc2ccccc2)C2CCS(=O)(=O)C2)c(C)c1 (centres undefined),0.948,-0.0514
COCCCNC(=O)CCN1C(=O)C(C)Oc2ccc(C)cc21 (centres undefined),0.969,-0.419
COc1ccc(N2C(=O)c3ccc(C(=O)Nc4ccccc4C(=O)O)cc3C2=O)cc1,1.15,2.97

More entries follow:
SMILES	CBX7 inh	CBX7 inh z-score
O=C(Nc1ccc(F)cc1)C1CCCN(S(=O)(=O)c2cccc3cccnc23)C1 (centres undefined)	0.993	-0.225
O=C(Nc1nnc(-c2cccs2)o1)c1ccc(S(=O)(=O)N2CCCC2)cc1	0.13*	-14.6*
Cc1oc(-c2ccccc2Cl)nc1CSCC(=O)NCc1cccs1	1.02	0.408
OCCNc1ncnc2c1cnn2-c1ccc(Cl)cc1	0.993	-0.106
O=C(NCc1ccccn1)C(=O)Nc1cccc2ccccc12	0.99	-0.276
COc1cccc(CNC(=O)CN2C(=O)CSc3ccc(S(=O)(=O)N4CCCCC4)cc32)c1	1.02	0.822
COc1ccc(C(F)(F)F)cc1NC(=O)c1cccnc1	1.17	1.65
Clc1ccc(-c2ncnn2-c2cccc(Cl)c2)cc1	1.17	1.43
O=C(Nc1ccc(Cl)c(-c2nc3cc(Cl)ccc3o2)c1)c1cc2ccccc2o1	1.11	0.486
CCCCNS(=O)(=O)c1ccc2nc(-c3cccs3)cc(C(=O)NCCCOC(C)C)c2c1	1.08	1.07
CCOc1cccc(C2CC(=O)NC3=C2C(=O)CCC3)c1 (centres undefined)	1.14	1.87
O=C(Nc1ccccc1C(=O)Nc1ccccc1)c1cccc(S(=O)(=O)N2CCCCCC2)c1	0.873	-1.37
CC(O)c1nc2ccccc2n1CCC1CCCCC1 (centres undefined)	1.02	0.355
CCOCCCNC(=O)c1ccc2c(c1)N(CC)C(=O)c1ccccc1S2	1.01	0.157
COc1cccc(NS(=O)(=O)c2ccc3[nH]cc(C(=O)N4CCCCC4)c(=O)c3c2)c1	1.02	0.282
Cc1ccc(N2C(=O)CC2(C(=O)NC2CCCCC2)c2cccs2)cc1 (centres undefined)	0.914	-2.15
CN(Cc1ccccc1)S(=O)(=O)c1ccc(C(=O)Nc2nc(-c3ccccn3)cs2)cc1	0.94	-1.94
CCN(CC)S(=O)(=O)c1ccc2c(c1)N(CC(=O)NCc1ccc(Cl)cc1)C(=O)CS2	1.04	1.37
O=C(Nc1cccc(-c2nc3ncccc3o2)c1)C(c1ccccc1)c1ccccc1	0.702	-2.53
CC(C)(C)C(=O)NCCc1nc2ccccc2n1Cc1c(F)cccc1Cl	0.942	-0.834
Cc1ccc2nc(-c3ccsc3)c(Nc3ccc4c(c3)OCCO4)n2c1	0.967	-0.0452
CC(C)Cn1c(SCc2ccc(Cl)cc2)nnc1-c1ccncc1	0.919	-0.877
CC(C)(C)C(=O)Nc1c(-c2ccc(F)cc2)nc2ccccn12	1.04	1.26
O=C1Nc2cc(Cl)ccc2Oc2cc([N+](=O)[O-])cc(Oc3ccccc3)c21	0.642	-0.356
CCOc1ccc(NS(=O)(=O)c2ccc3c(c2)CCN3C(=O)C2CCC2)cc1	0.962	-1.08
COc1ccccc1Nc1nnc(C(C)(C)C)c(=O)[nH]1	1.45	0.911
COc1ccc(CNC(=O)CC2Oc3ccc(Cl)cc3NC2=O)cc1 (centres undefined)	1.05	2.08
CCCN(CCC)S(=O)(=O)c1ccc(C(=O)Nc2nnc(C)o2)cc1	0.0834*	-1.22*
Cc1ccc(-c2nc(CS(=O)(=O)CC(=O)N3CCc4ccccc4C3)c(C)o2)cc1	1.01	0.00947
CC1CCN(C(=O)CN2C(=O)COc3ccc(S(=O)(=O)N4CCCCCC4)cc32)CC1	0.991	-0.242
COC(=O)CCC(=O)N1CCc2cc(S(=O)(=O)N3CCN(c4ccccc4Cl)CC3)ccc21	0.926	-1.99
Cc1cccc(-c2nc(CN3CCCC(C(=O)NCc4ccc(F)cc4)C3)c(C)o2)c1 (centres undefined)	0.93	-3.5
Cc1cc(=O)n2nc(N3CCC(C(=O)NCCCN4CCOCC4)CC3)sc2n1	0.993	-0.37
Cc1ccc(C)c(NC2c3ccccc3C(=O)N2c2ccccc2C)c1 (centres undefined)	0.959	-1.37
O=C1CC(c2ccccc2)CCc2sccc2N1 (centres undefined)	0.958	-1.56
Cn1c2ccccc2c2c(C(=O)NCC3COc4ccccc4O3)cn(C3CCCCC3)c(=O)c21 (centres undefined)	0.889	-2.76
COc1ccc2cc(CCNC(=O)CCCc3ccccc3)c(=O)[nH]c2c1	0.977	-0.571
CCN(c1ccc(C)c(C)c1)S(=O)(=O)c1ccc2c(c1)CCC(=O)N2	0.93	-1.55
CCC1=Nc2cc(C(=O)N3CCC(C)CC3)ccc2Sc2ccc(C)cc21	0.829	-2.46
CCCC12CC3CC(CC(N)(C3)C1)C2	0.932	-0.73
COc1cc(C)nc(Oc2ccc(=O)[nH]n2)n1	1.03	0.373
CCOC(=O)c1c(C)n(-c2ccc(C)cc2)c2ccc(OCC(O)CNCCCO)cc12 (centres undefined)	0.833	-1.82
Cc1ccc2oc(-c3cccc(NC(=O)c4ccccc4)c3C)nc2c1	1	0.152
COc1ccc(OCC(=O)Nc2cc(C)on2)cc1	1.08	0.0945
COc1ccc(-n2ncc3c(Nc4ccc(C(C)C)cc4)ncnc32)cc1	1.05	0.161
CC(=O)Nc1ccc(Nc2cc(C)c3ccccc3n2)cc1	1.1	0.476
CCCC(=O)NCCc1cc2c(C)ccc(C)c2[nH]c1=O	1.02	0.56
Cc1cc(N2CCc3ccccc32)n2nc(C)c(-c3ccc(Cl)cc3)c2n1	1.25	6.62
CN(C)c1ccc(NC(=O)c2cc3c(n(-c4ccccc4)c2=O)CCCC3=O)cc1	0.957	-0.185
CC(C)CCNC(=O)CSc1nc(Nc2ccc3c(c2)OCO3)c2ccccc2n1	0.83	-0.475
CCOc1ccc(C2C(=O)N(C3CCCCCC3)CC(=O)N2C2CCCCCCC2)cc1OC (centres undefined)	0.748	-1.02
O=C(c1ccccc1)c1cccnc1N1CCOCC1	1.15	2.48
O=C1c2cccnc2C(=O)N1c1ccc(-c2nc3ccccc3o2)cc1	0.739	-4.13
CC1C(O)CCN(C)C1C (centres undefined)	0.997	-0.0661
